Rce1 inh: yeast Rce1p protease inhibitors, primary screen, biochemical, fluorescence, cell-free homogeneous; CAAX prenyl protease 2 (Saccharomyces cerevisiae (strain ATCC 204508 / S288c)), Q03530; yeast membranes, quenched prenylated peptide cleavage fluorescence; calls only; 290,000 compounds, 0.27% hits; AID 2563, 2010;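 active means fall in fluorescence gain of 50% or more versus controls, with final raw signal at or below 3038400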;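 further: plate controls were neutral control wells for no effect and wells lacking membranes for full effect; tested at 10 µM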
Target sequence (Q03530 whole entry, looked up): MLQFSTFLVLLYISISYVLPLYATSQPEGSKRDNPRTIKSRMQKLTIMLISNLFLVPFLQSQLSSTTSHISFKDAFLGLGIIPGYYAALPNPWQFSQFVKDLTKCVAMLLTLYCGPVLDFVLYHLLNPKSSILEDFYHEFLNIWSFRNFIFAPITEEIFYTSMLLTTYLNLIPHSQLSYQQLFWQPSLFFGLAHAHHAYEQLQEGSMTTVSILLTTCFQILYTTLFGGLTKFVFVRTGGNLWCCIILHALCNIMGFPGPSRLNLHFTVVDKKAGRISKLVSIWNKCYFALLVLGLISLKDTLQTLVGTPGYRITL
PABP polyA inh: PABP poly(A) RNA binding inhibitors, primary screen, biochemical, fluorescence polarization, uHTS. AID 2014, 2009. inhibition, % at 35 µM. Polyadenylate-binding protein 1 (Homo sapiens), P11940. 290,000 compounds, 1% hits;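 active means 50% or more with normal probe brightness, or confirmed in later tests; about a fifth of its hits are not listed in these tables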;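 further: calls also rest on retests at 20 µM and on dose response follow-up; controls were probe without protein and protein plus probe with vehicle; some compounds called inactive have numbers as strong as hits; many hits fall short of the cut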
eIF4H inh: human eIF4H binding inhibitors, primary screen, translation initiation inhibitor project, biochemical, uHTS, fluorescence polarization; eIF4H fluorescence polarization binding assay; inhibition, % at 35 µM; 290,000 compounds, 0.94% hits;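 active means 50% or more with normal probe brightness, or confirmed in later tests; about a fifth of its hits are not listed in these tables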;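 further: calls also rest on retests at 20 µM and on dose response follow-up; 0% = protein and probe with vehicle and 100% = probe without protein; strong numbers were not always called active; many hits fall short of the cut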
Yeast UUG start: modulators of yeast start codon fidelity, primary screen, whole organism, S. cerevisiae, single point, plate reader; S. cerevisiae UUG-firefly luciferase reporter, luminescence/redox ratio; AID 602363, 2012; activity score, % at 18.7 µM; 350,000 compounds, 0.13% hits;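 active means replicate mean at a twofold rise or more, about +100% in these data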;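 further: firefly luciferase made from a UUG start codon reports start codon fidelity; reporter light over untreated wells divided by growth signal over untreated wells; some hits fall short of that in this replicate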
MT1-MMP act inh: blockers of MT1-MMP proenzyme processing, primary screen, HT1080 RFP-PRO-GFP cells, GFP/RFP fluorescence; GFP/RFP ratio change, % at 20 µM; GFP/RFP ratio fluorescence, overnight; percent of plate control window, DMSO zero; 360,000 compounds, 0.061% hits; Matrix metalloproteinase-14 (Homo sapiens), P50281;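 active means GFP/RFP ratio change of at least 30% with cell ATP level not reduced by more than half and red fluorescence within 50% of control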; further: strong numbers were not always called active
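Assay system: HT1080 RFP-PRO-GFP cells | Dosing: 20 µM single dose, 1% DMSO | Incubation: Cells overnight before dosing, compound overnight, 37 °C, 5% CO2 | Evaluation: GFP/RFP fluorescence ratio | Control set: DMSO-only wells and HT1080 RFP-L50D-GFP cell wells as references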
Env fusion inh: inhibitors of HIV-1 Env-driven cell-cell fusion, primary screen, HeLa-JRFL effector, CEM21 target cells, luciferase; 360,000 compounds, 1.1% hits; inhibition, % at 12.3 µM;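 active means mean replicate inhibition score of at least 50 and every replicate individually at or above 50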;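 further: 0% = plate neutral controls and 100% = maraviroc near 300 nM; one replicate is shown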
CSC inhib: cancer stem cell viability inhibitors, primary screen, luminescence; 300,000 compounds, 1.1% hits; cancer stem cell-like cells viability; inhibition, % at 7.5 µM;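 active means mean at 75% or more and at least half the replicates too; tested in HMLE shEcad cells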;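 further: 0% = median of negative and 100% = median of positive control wells; the first replicate is given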
eIF4H inh retest: also measured in eIF4H inh; calls as there; inhibition, %; compound at 20 µM; confirmation average;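 mean of two retest wells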
PABP polyA inh retest: second read-out of PABP polyA inh, no call of its own (marks repeat the call); inhibition, %; compound at 20 µM; confirmation repeats;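 mean of two retest wells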
MT1-MMP act inh RFP: further read-out of MT1-MMP act inh, marked with its call; RFP signal change, %; measured here: RFP expression control read;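 0 = vehicle wells; hits needed this value within 50% of zero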
Numbers without * were called inactive; i = inactive; · = no result given; & = joins results of further samples. Compounds as they come; any-hit rate near 3%.

SMILES	Rce1 inh	PABP polyA inh	eIF4H inh	Yeast UUG start	MT1-MMP act inh	MT1-MMP act inh RFP	Env fusion inh	CSC inhib	others
O=C(CCc1ccccc1)NCC(=O)N/N=C/c1ccc2c(c1)OCO2	i	5	7	·	-1	5	1	-3
Cc1nnc(C)n1/N=C/c1cc2ccccc2nc1Cl	i	2	-7	-16	4	7	14	-10
C#CCOCCOCCOCCNc1nc(N2CCN(C(=O)CCCCCCCCCCNC(=O)[C@H](CCCCN)n3cc(C[C@@H](C)CC)nn3)CC2)nc(N2CCN(C(=O)CCCCCCCCCCNC(=O)[C@H](CCCN=C(N)N)n3cc(C[C@@H](C)CC)nn3)CC2)n1	·	·	·	-13	5	-17	·	102*
O=C(Nc1ccc(Cl)cc1)N(Cc1cccnc1)Cc1ccco1	i	2	-12	·	2	-1	-30	2
Cc1ccc(-c2noc(CCC(=O)NCCCN3CCN(c4ccc(F)cc4)CC3)n2)cc1	i	4	-2	5	4	-4	·	-2
O=C(CN1CCN(Cc2ccccc2)CC1)N/N=C/c1c[nH]c2ccccc12	i	-6	-10	·	9	-2	9	-1
COc1ccc(S(=O)(=O)N2CCOCC2)cc1NC(=O)CCNC(=O)c1ccc([N+](=O)[O-])cc1	·	·	·	-14	3	3	-5	·
COc1ccc(C(=O)/C=C/NCc2ccc(C)cc2)cc1	i	·	·	-22	-5	-1	·	·
COc1ccc(N=C2SC(CC(=O)Nc3cccc(Cl)c3)C(=O)N2Cc2ccco2)cc1 (centres undefined)	i	-8	14	·	-5	-9	15	-5
CCNS(=O)(=O)c1ccc(CCC(=O)N2CCc3ccccc3C2)cc1	i	-4	1	-7	0	5	5	·
C=CCn1c(=S)[nH]c2cc(-c3ccccc3)sc2c1=O	i	-4	-9	-8	-3	-2	25	-1
Cc1cccc(S(=O)(=O)N(C)C[C@@H]2OCc3cnnn3CCCC(=O)N([C@H](C)CO)C[C@H]2C)c1	·	·	·	-10&-10	2	8	-10	·
COCCSc1nnc(NC(=O)C2CC(=O)N(c3ccc(Cl)cc3)C2)s1 (centres undefined)	i	-8	-2	·	2	5	-3	-10
Brc1ccc(/C=N/Nc2nncc(-c3ccccc3)n2)o1	i	15	-2	·	·	·	-3	1
CCCNC(=O)c1cc(C2CCCCN2C(=O)c2ccccc2)on1 (centres undefined)	·	·	·	-10	-3	2	-36	·

A draw from above in order of molecular weight, descending.
SMILES	Rce1 inh	PABP polyA inh	eIF4H inh	Yeast UUG start	MT1-MMP act inh	MT1-MMP act inh RFP	Env fusion inh	CSC inhib	others
Cc1ccc(-c2noc(CCC(=O)NCCCN3CCN(c4ccc(F)cc4)CC3)n2)cc1	i	4	-2	5	4	-4	·	-2
O=C(Nc1ccc(Cl)cc1)N(Cc1cccnc1)Cc1ccco1	i	2	-12	·	2	-1	-30	2
C=CCn1c(=S)[nH]c2cc(-c3ccccc3)sc2c1=O	i	-4	-9	-8	-3	-2	25	-1
Cc1nnc(C)n1/N=C/c1cc2ccccc2nc1Cl	i	2	-7	-16	4	7	14	-10

More records follow.
SMILES	Rce1 inh	PABP polyA inh	eIF4H inh	Yeast UUG start	MT1-MMP act inh	MT1-MMP act inh RFP	Env fusion inh	CSC inhib	others
Cc1cccc(C)c1NC(=O)C1(N(Cc2ccco2)C(=O)CC2NC(=O)NC2=O)CCCC1 (centres undefined)	i	6	10	-7	-3	1	-26	3
Oc1sc(C=Nc2ccc(F)cc2)c2ccccc12	i	4	89	-15	-34	4	-24	-6	eIF4H inh retest=9;PABP polyA inh retest=-4
COc1ccc2c(c1)C1NC(=S)NC(C)(O2)C1C(=O)Nc1ccc(C)cc1C (centres undefined)	i	3	1	·	7	1	-29	-14
FC(F)(F)c1ccc2c(c1)NCC1CCCN21 (centres undefined)	i	23*	53*	·	-58	-4	7	-8	eIF4H inh retest=87*;PABP polyA inh retest=85*
CC1=CC(C)(C)NC(=S)N1c1cc(C)cc(C)c1	i	1	-8	·	-4	-2	15	-14
CCN(CC)S(=O)(=O)c1ccc(/C=C/C(=O)Nc2ccc(N3CCOCC3)cc2)cc1	i	3	2	1	2	-19	29	23
CC1CC(C)CN(C(=O)CNC(=O)c2ccc3ccccc3c2)C1 (centres undefined)	i	-5	-4	-8	-4	-1	-8	6
CN(C)c1ccc(C(=O)c2ccc(N(C)C)c3ccccc23)cc1	i	-8	-1	-4	10	-5	·	5
COc1ccccc1C(=O)OCc1nc(N)nc(Nc2ccccc2C)n1	i	7	5	-23	3	5	-15	-25
O=C(CCSc1nc(-c2ccco2)cc(C(F)(F)F)n1)Nc1ccc2c(c1)OCO2	i	13	2	7	6	1	·	-12
COc1ccc(S(=O)(=O)NCC2CCCN(C(=O)c3ccco3)C2)cc1 (centres undefined)	i	1	5	·	1	1	3	1
OC(C#CCN1CCCCC1)c1ccccc1 (centres undefined)	i	-3	-7	2	2	1	6	-7
COCCCN1C(=O)C(=O)/C(=C(/O)c2ccc(C)cc2)C1/C=C/c1ccccc1 (centres undefined)	i	-3	1	0	0	0	23	-7
COc1ccc(NC(=O)CN(C)C(=O)CSCc2ccc(C)cc2)cc1	i	·	·	·	3	-4	-16	-12
Cc1cc(N2CCN(c3ccccc3)CC2)nc(NCc2ccccc2)n1	·	-1	2	-4	0	-12	22	-14
Cc1ccc(S(=O)(=O)NCc2ccccc2)cc1C(=O)NC(C)c1ccc(S(N)(=O)=O)cc1 (centres undefined)	·	·	·	-12	-1	2	6	·
c1ccc(-c2ccc(OCCCn3cncn3)cc2)cc1	·	3	-8	-26	-1	-14	-26	-6
CCN1CCN(CCNC(=O)c2ccc(/C=C3/Sc4ccccc4N(Cc4ccccc4C)C3=O)cc2)CC1	i	-5	-12	9	-5	-8	-23	·
CC(=O)c1ccc(-c2nnc(CCC(=O)N3CCCC(C(=O)CC(C)C)C3)o2)s1 (centres undefined)	i	2	-9	·	1	0	-38	-1
CC1CCCC(NC(=O)c2cccs2)C1C (centres undefined)	·	·	·	-7	-1	-2	·	-3
COc1cccc(C2=NO[C@@H]3C(=O)N(Cc4ccccc4)C(=O)[C@H]23)c1OC	·	-6	7	·	2	6	-5	-9
CCOC(=O)c1sc2ncn(/N=C/c3cccnc3)c(=O)c2c1C	i	2	1	-14	-1	1	·	16
C[C@@H]1CN([C@H](C)CO)C(=O)Cc2cc(NC(=O)CCC(F)(F)F)ccc2O[C@@H]1CN(C)C(=O)Nc1ccccc1	·	·	·	-8&-12	0	-1	-2	0
CC1C(=O)C(C)(C)C(=O)OC1c1ccc([N+](=O)[O-])cc1 (centres undefined)	i	5	6	·	-4	-4	-8	-3
CCn1c2c(c3cc(Cl)ccc31)CCCC2=O	i	4	-3	-13	0	3	-16	-3
C=CCn1c(SCC(=O)NCCCO)nc2sc3c(c2c1=O)CCC3	i	-6	-6	-25	-1	2	11	-8
Cc1cccc(C)c1OCC(=O)Nc1cccc(-c2nnc(-c3ccccc3)o2)c1	i	-2	3	-17	-1	-4	·	·
OCCC1CCCCN1CC(O)COCc1ccc(Cl)cc1 (centres undefined)	i	0	9	·	-2	-1	-22	17
CC1CCN(c2ccc3nnc(CCC(=O)NCC(C)c4ccccc4)n3n2)CC1 (centres undefined)	i	-5	6	-24	0	-2	3	-8
COCCN(C(=O)CNC(=O)c1ccco1)C(C(=O)NC1CCCC1)c1ccc(OC)c(OC)c1 (centres undefined)	i	7	-16	-13	-4	-5	6	-4

For convenience, part of the list above:
SMILES	Rce1 inh	PABP polyA inh	eIF4H inh	Yeast UUG start	MT1-MMP act inh	MT1-MMP act inh RFP	Env fusion inh	CSC inhib	others
Cc1ccc(S(=O)(=O)NCc2ccccc2)cc1C(=O)NC(C)c1ccc(S(N)(=O)=O)cc1 (centres undefined)	·	·	·	-12	-1	2	6	·
c1ccc(-c2ccc(OCCCn3cncn3)cc2)cc1	·	3	-8	-26	-1	-14	-26	-6
CCN1CCN(CCNC(=O)c2ccc(/C=C3/Sc4ccccc4N(Cc4ccccc4C)C3=O)cc2)CC1	i	-5	-12	9	-5	-8	-23	·
CC(=O)c1ccc(-c2nnc(CCC(=O)N3CCCC(C(=O)CC(C)C)C3)o2)s1 (centres undefined)	i	2	-9	·	1	0	-38	-1

Carrying on:
SMILES	Rce1 inh	PABP polyA inh	eIF4H inh	Yeast UUG start	MT1-MMP act inh	MT1-MMP act inh RFP	Env fusion inh	CSC inhib	others
CCOC(=O)/C=C/C(=O)Nc1ccc(S(=O)(=O)N2CCCCCC2)cc1	i	1	6	·	-6	-6	23	5
CN(C(=O)c1cccc(NC(=O)c2ccco2)c1)c1ccccc1	i	2	-13	-1	2	5	13	4
O=C(Cn1c(SCC(=O)N2CCc3ccccc3C2)nc2ccccc21)NC1CCCC1	i	-6	-7	-14	-7	1	-86	-9
CCc1ccc([C@@H]2C[C@H]3[C@@H](CN2S(=O)(=O)c2ccc(C)cc2)C(=O)C[C@@H](c2ccccc2)N3S(=O)(=O)c2ccc(C)cc2)cc1	·	·	·	-15	-2	-5	22	·
COc1ccc(N(C(=O)c2snc(C(N)=O)c2N)C(C(=O)NCc2ccc(F)cc2)c2ccc(O)cc2)cc1 (centres undefined)	i	5	-1	-20	-2	-3	-13	8
O=C(NCCCN1CCCC1=O)c1ccc(NS(=O)(=O)c2cccc([N+](=O)[O-])c2)cc1	i	·	·	·	-1	-1	3	-8
CCOC(=O)/C=C/C(=O)OCC(=O)Nc1ccc(C)cc1	i	-8	-2	·	-1	2	9	·
O=C(O)/C(=C\c1ccc(-c2ccc(F)cc2)o1)c1ccccc1	·	19	23	·	-9	5	4	·
O=C(c1oc2ccccc2c1CSCc1ccccc1)N1CCN(c2ncccn2)CC1	i	1	16	-6	-26	-9	56*	9
CCc1ccc(CN2C(=O)c3ccccc3C2C(=O)NCC2CCCO2)cc1 (centres undefined)	i	-2	-4	-17	3	3	9	-9
Cc1cc(C)c(S(=O)(=O)N2CCOC2CNC(=O)C(=O)NCCCN2CCOCC2)c(C)c1 (centres undefined)	i	12	4	-12	-2	-2	-15	-19
Cc1cn(CCOc2ccc(Cl)cc2)c(=O)[nH]c1=O	i	7	1	-11	5	-1	25	-25
CCOC(=O)c1sc(Nc2ccccc2Cl)nc1C	i	2	19	85	-5	1	-60	17
COc1cc(CNCc2ccccn2)ccc1OCC(N)=O	i	7	3	-18	7	1	·	14
CC(NC(=O)C1CCC1)c1ccccc1 (centres undefined)	i	6	-7	0	-5	-1	-18	-9
CCCCn1c(N)c(N(CCOC)C(=O)c2cccc(OCc3ccccc3)c2)c(=O)[nH]c1=O	i	·	·	4	-1	5	·	-12
COCCN(C(=O)CN1CCc2ccccc2C1)c1c(N)n(Cc2ccccc2)c(=O)[nH]c1=O	i	3	10	·	-2	0	-83	-6
Cc1ccc(C(=O)NNC(=O)/C=C\C(=O)O)cc1	i	-8	-5	·	3	3	-12	-8

Assay outcomes deposited in PubChem BioAssay by several laboratories.
